H5N1 CPE – MDCK cell protection from H5N1 avian flu; cytopathic effect, luminescence, 72 h; active compounds read high; no value below 0 was filed and about half of the inactive calls have no number; reference of the scale not given here; 96,000 compounds, 0.07% hits; AID 740, 2007; inhibition, % at 50 µM; in the data active = inhibition above about 25%
* = called active by the depositor; i = inactive. This is a subset, so the mix of outcomes need not match the whole.

Structure,H5N1 CPE
FC(F)(F)c1nc2ccccc2n2c(-c3ccc(Cl)cc3Cl)nnc12,i
CCC(=O)Nc1ccc(S(=O)(=O)N2CCc3ccccc3C2)cc1,3.3
CC1(C)N=C2C(=[N+]1[O-])CCC/C2=N\O,0.5
O=C(N/N=C/c1ccccc1F)c1csc2c1CCCC2,1.4
Cc1ccc(-n2nc3c([n+]2[O-])CCc2c-3no[n+]2[O-])cc1,2.2
O=C(O)COc1ccc2occ(C(=O)c3ccccc3)c2c1,0.6
CCCCC(=O)Nc1ccc(C(=O)Nc2cccnc2)cc1,2.5
COc1ccc(N(Cc2cc3cccc(C)c3[nH]c2=O)S(C)(=O)=O)cc1,0.3
CCC(C(=O)OC)n1cnc2c(nnn2-c2cccc(Cl)c2)c1=O (configuration not stated),2.1
COC(=O)c1ccc(CNC(=O)CSc2nc3sc(C)c(C)c3c(=O)n2C)o1,5.1
CN1CCC(OC(=O)COc2ccc(C(C)(C)C)cc2)CC1,i
COc1ccc(C2C3=C(CCCC3=O)Nc3nc(-c4cc(OC)c(OC)c(OC)c4)nn32)cc1OC (configuration not stated),i
CN(C)c1cccc(C(=O)OCC(=O)NCc2ccco2)c1,i
Cc1cc2c(ncn2Cc2ccccc2)c([N+](=O)[O-])c1C,2.5
Cc1cccc(C(=O)O)c1NC(=O)c1ccc(F)cc1,i
CC1CN(Cc2ccccc2)c2nc3c(c(=O)n(C)c(=O)n3C)n2C1 (configuration not stated),2.9
Cc1cnc(NC(=O)C2CCCO2)s1 (configuration not stated),0.4
CCCC(=O)Nc1nc2nc(C)cc(=O)n2[nH]1,0.7
Cc1ccc(OCC(=O)Nc2cccc3nsnc23)c(C)c1,i
COC(=O)C1CCN(C(=O)c2sc3nc(-c4ccccc4)cn3c2C)CC1,1.2
O=C(Nc1ccc(F)cc1)N1CCN(C/C=C/c2ccccc2)CC1,0.3
Cc1nc2ccccc2c2nc3ccccc3n12,0.9
Cc1cc(C(=O)OCC(=O)N2CCCC2)c2ccccc2n1,1.4
COc1cc(OC)cc(-c2nc3cc(C)ccc3o2)c1,i
Cc1nn2c(NCCCN(C)C)c3c(nc2c1-c1ccccc1)CCC3,i
Nc1nnc(CSCc2ccc(F)cc2)s1,i
O=C(NC(C(=O)N1CCCC1C(=O)O)=C1CCCCC1)c1ccccc1 (configuration not stated),i
Cc1ccc2[nH]c(=O)c(CNC(C)(C)C)cc2c1,1.5
CC(NCc1ccc(Cl)c(Cl)c1)C(O)c1ccccc1 (configuration not stated),i
N#Cc1c2n(c3c(=O)n(Cc4ccc(Cl)cc4)cnc13)CCCCC2,i
CCCN1CCCc2cc(CN(CCCN3CCOCC3)C(=O)Nc3ccc(OCC)cc3)ccc21,i
COc1ccccc1N1CCN(C(=O)C2CCN(S(=O)(=O)c3ccccc3)CC2)CC1,0.6
O=C(COC(=O)c1cccs1)NCCN1C(=O)CSC1=O,1.1
CCc1ccccc1NC1=NCC(=O)N1Cc1ccccc1,0.1
Cc1[nH]c(=O)cc2ccccc12,i
CC(=O)OC[C@H]1O[C@@H](n2ccc(=O)[nH]c2=S)C(OC(C)=O)C1OC(C)=O (some centres not stated),0.6
CCOc1ccccc1NC(=O)CN(c1cc(C)cc(C)c1)S(=O)(=O)c1c(C)noc1C,i
CN(C(=O)c1ccc2c(c1)C(=O)N(CCC1=CCCCC1)C2=O)C1CCCCC1,3.4
O=C(OCCNc1ncc(C(F)(F)F)cc1Cl)c1ccc(S(=O)(=O)N2CCOCC2)cc1,0.5
O=C(c1ccc(Br)o1)N1CCN(Cc2ccc3c(c2)OCO3)CC1,0.8
CC(C)CN(Cc1c(O)ccc2c3c(c(=O)oc12)CCC3)CC(C)C,0.4
Cc1cc(C)c2nc(Cl)c(CN(Cc3ccco3)C(=O)Nc3ccccc3C)cc2c1,0.3
Cc1ccc(S(=O)(=O)N2CCN(C(=O)C3COc4ccccc4O3)CC2)cc1C (configuration not stated),3.0
Cn1cnnc1SCc1cccc(Br)c1,1.7
CCOC(=O)c1c(NC(=O)CSc2nc3ccccc3o2)sc(C)c1C,1.6
CC(=O)Nc1ccc(S(=O)(=O)Nc2cccc(-c3nc4ccccc4o3)c2)cc1,0.3
Cc1cccc(NC(=O)c2nc(-c3ccccc3)n(-c3ccccc3)n2)c1C,i
CCC(C)C(=O)Nc1nc(C)c(-c2csc(Nc3cc(Cl)ccc3OC)n2)s1 (configuration not stated),2.4
NCCCCCc1nnc(SCc2cccc(Cl)c2)o1,i
COCCn1cc(C(=O)NCCCN2CCC(C)CC2)c2c3ccccc3n(C)c2c1=O,0.8

(continued)
Structure,H5N1 CPE
CC(C(=O)Nc1cccnc1)N1C(=O)c2ccccc2C1=O (configuration not stated),0.1
COc1ccc(-c2cnnn2-c2ccc(N)cc2)cc1OC,0.2
COc1ccc(NC(C)=O)c2nc(C)c(C)nc12,i
O=C(NCc1ccco1)Nc1ccccc1Cl,4.1
Cc1ccc(N2C(=O)CCSC23C(=O)Nc2ccccc23)cc1 (configuration not stated),2.8
CCn1cc(C(=O)NCC2CCCO2)c(=O)c2cc(S(=O)(=O)N3CCC(C)CC3)ccc21 (configuration not stated),i
Cn1cc(C(=O)Nc2cccc(F)c2)cn1,1.0
CCOC(=O)CON1C(=O)C(C)(C)N(OCC(=O)OCC)C(=O)C1(C)C,1.5
O=c1oc2cc(Br)ccc2n1CSC1=NCCS1,8.8
CCCS(=O)(=O)c1snnc1C,i

Given as labelled records: 4 of the compounds above.
compound: CC(=O)Nc1ccc(S(=O)(=O)Nc2cccc(-c3nc4ccccc4o3)c2)cc1
  H5N1 CPE: 0.3

compound: Cc1cccc(NC(=O)c2nc(-c3ccccc3)n(-c3ccccc3)n2)c1C
  H5N1 CPE: i

compound: CCC(C)C(=O)Nc1nc(C)c(-c2csc(Nc3cc(Cl)ccc3OC)n2)s1 (configuration not stated)
  H5N1 CPE: 2.4

compound: NCCCCCc1nnc(SCc2cccc(Cl)c2)o1
  H5N1 CPE: i

The results go on.
Structure,H5N1 CPE
C=CCC(C)(NCc1ccccc1)c1ccccc1 (configuration not stated),0.4
Nc1nc(NCc2c(F)cccc2Cl)nn1-c1ccccc1,i
CC(C)(C)NC(=O)C1CCN(S(=O)(=O)c2ccc(Br)cc2)CC1,1.0
Cc1c(-c2nc(N)nc(Nc3ccccc3)n2)oc2ccccc12,i
O=C(CSCc1ccc(Cl)cc1)Nc1ccc2c(c1)OCCO2,i
CC1=C(C#N)C(Nc2cccc(C)n2)(C(F)(F)F)C(=O)N1 (configuration not stated),0.2
CC(=O)N1CCN(Cc2nc3cc(NC(=O)C4CCCCC4)ccc3n2C)CC1,0.5
Cc1cc(OCC(=O)Nc2ccc(N3CCN(C(=O)c4ccco4)CC3)cc2)cc(C)c1Cl,i
O=C(NCc1ccc2c(c1)OCO2)c1cc2n(n1)C(C(F)(F)F)CC(c1ccc3c(c1)OCO3)N2 (configuration not stated),i
O=C(/C=C/c1cc([N+](=O)[O-])ccc1OC(F)F)NCc1ccc(Cl)cc1,i
COc1cc2nc(=S)n3[nH]c(CCn4c(C)nc5ccccc54)nc3c2cc1OC,i
COc1ccc(OC)c(C2C(C(C)=O)=C(O)C(=O)N2CCN2CCOCC2)c1 (configuration not stated),0.8
CCc1nnc(NC(=O)CCC(=O)Nc2ccccc2)s1,0.3
CSCC[C@H](NC(=O)C1CCN(S(=O)(=O)c2ccc(C)cc2)CC1)C(=O)NCC1CCCO1 (some centres not stated),1.3
COc1ccc(Cl)cc1S(=O)(=O)N1CCN(C(=O)c2cc(OC)c(OC)c(OC)c2)CC1,0.3
CCCCN(CC)CCNC(=O)c1cc2c(C)nc3ccccc3c2o1,1.3
CCCCCOP(=O)(OCCCCC)C1(NS(=O)(=O)c2ccccc2)C=CC(=O)c2ccccc21 (configuration not stated),i
O=C(c1ccccc1)c1ccc(OCCCCN2CCCCC2)cc1,i
O=C(CSc1nnnn1-c1ccccc1)Nc1ccc(Cl)cc1,0.5
Cc1ccc(CNC(=O)c2ccccc2NC(=O)CSc2nnnn2C)cc1,i
O=C(CN(Cc1ccc(F)cc1)S(=O)(=O)c1ccccc1)N1CCCCC1,2.4
CCOC(=O)N1CCN(S(=O)(=O)c2c(C)cc(C)cc2C)CC1,i
Cc1cc(/C=C2/SC(=O)N(CC(=O)OC(C)C)C2=O)c(C)n1C,0.7
O=C(CN1CC(=O)Oc2ccccc21)OCC(=O)c1ccccc1,i
O=C(NCCc1ccccc1)c1ccc(-n2cnnn2)cc1,0.2
CCC(=O)Nc1cccc(C(=O)OCC(=O)c2ccccc2Cl)c1,0.8
CCCCOc1ccc(N(CC(=O)NC2CCCC2)C(=O)CCC(=O)Nc2ccccn2)cc1,i
COc1ccc(OCC(=O)NNC(=O)c2ccccn2)cc1,1.5
CSc1nnc(-c2cnccn2)n1CCCN1CCCC1=O,i
Cc1nnc(-c2cnn(C)c2N)n1Cc1cccc(Cl)c1,0.1
CC1CN(C(=O)c2ccc3c(c2)OCO3)CC(C)O1 (configuration not stated),i
CN(C)CC(O)COc1ccc(C(C)(C)c2ccc(OCC(O)CN(C)C)cc2)cc1 (configuration not stated),i
O=C(O)C1CCN(C(=O)COc2ccc3c4c(c(=O)oc3c2)CCC4)CC1,0.7
CCOC(=O)CSc1nc2ccccc2c(=O)n1Cc1ccco1,1.1
CCCNC(=O)NC(=O)COC(=O)c1oc2ccc(OCC)cc2c1C,0.1
O=C1Oc2ccccc2C2(O)C3CCCCCC3C12 (configuration not stated),i
c1ccc(N2CCN(c3nc4ccccc4n4cnnc34)CC2)cc1,0.6
CCOc1ccccc1N1CCN(C(=O)c2cc[n+]([O-])cc2)CC1,i
Cc1ccc(CNC(=O)c2sccc2-n2cccc2)cc1,0.0
COc1ccc(C(=O)Nc2cc(C)nc3ccccc23)cc1OC,i
CN1CCN(c2ccc(Cl)cc2NC(=O)c2cccc(S(=O)(=O)N(C)C)c2)CC1,i
CCc1ccc(C(=O)CC2(O)C(=O)N(CN3CCOCC3)c3ccccc32)cc1 (configuration not stated),i
Cc1ccc(C(=O)CC(C(=O)O)n2cccn2)cc1 (configuration not stated),i
Cc1cccc(OCC(=O)O/N=C(\N)c2ccccn2)c1C,0.3
Cc1ccc(S(=O)(=O)N(C)/C(=N/S(=O)(=O)c2ccccc2)c2ccccc2)cc1,0.3
O=S(=O)(/C=C/c1ccccc1)N1CCN(c2cccc(Cl)c2)CC1,0.9
CCCC1S/C(=N/N=C/c2cccs2)NC1=O (configuration not stated),1.1
Nc1nc(Nc2ccc(Cl)cc2)n[nH]1,i
C=CCOc1cc(C)nc(-c2ccccc2O)n1,i
CN1C(=O)N(C)C(=O)C2(Cc3cc(N)ccc3N3CCN(c4ccccc4F)CC32)C1=O (configuration not stated),3.4

Later entries.
Structure,H5N1 CPE
CCOC(=O)N1CCC(N2Cc3cccc(C(=O)Nc4ccc(F)cc4)c3C2=O)CC1,1.1
CCOC(=O)Cc1csc(N/N=C\c2cccc(Br)c2)n1,i
COC(=O)c1ccc(CSc2nnc(CNC(=O)COc3ccc(Cl)cc3)o2)o1,0.1
CCCOC(=O)C(C)n1c(-c2ccccc2)nc2ccccc2c1=O (configuration not stated),2.5
CCNc1sc(C(=O)c2cccs2)c(N)c1C#N,2.0
COC(=O)c1ccccc1NC(=O)/C=C/c1cc(OC)c(OC)c(OC)c1,i
Cn1nnnc1SCC(=O)Nc1nc2c(s1)CCCC2,1.1
CCOC(=O)Cn1c(=O)oc2cc(S(=O)(=O)N(C)Cc3ccco3)ccc21,2.2
CC1Cc2ccccc2N1C(=O)C1CCCN(S(=O)(=O)c2cccc3nsnc23)C1 (configuration not stated),2.0
CC(C)CC(NC=C1C(=O)OC(C)(C)OC1=O)C(=O)O (configuration not stated),i
COc1ccc(S(=O)(=O)NCCC(=O)NCc2ccc(F)cc2)cc1,0.2
O=C(c1ccc(-c2cccc(C(F)(F)F)c2)o1)N1CCOCC1,i
O=C(Nc1cc(C(F)(F)F)ccc1N1CCOCC1)c1ccc(Cl)nc1,i
CC(=O)Nc1nc2c(c3c1c(=O)oc1ccccc13)CCCC2,i
OCC#CCSc1nnc(-c2ccccc2Br)o1,0.2
OCCN1CCN(Cc2cc(Br)cc(Br)c2O)CC1,1.5
CCCS(=O)(=O)N1CCC(C(=O)NCCN2CCC(Cc3ccccc3)CC2)CC1,i
COc1ccc(S(=O)(=O)NC2(C(F)(F)F)N=C3SCCN3C2=O)cc1 (configuration not stated),1.1
COc1ccc(OC)c(C(=O)CSc2nnc(-c3cccs3)n2C)c1,1.6
CCOC(=O)N1CCC(NC(=O)CN2C(=O)COc3ccc(C(C)(C)C)cc32)CC1,0.9
CCOC(=O)C1=C(C)NC(=O)NC1c1c(O)ccc2ccccc12 (configuration not stated),1.3
CCC(C)NS(=O)(=O)c1ccc(-c2csnn2)s1 (configuration not stated),1.8
CCOc1ncccc1C(=O)N(C)CC1COc2ccccc2O1 (configuration not stated),i
NC(=S)NNC(=O)c1ccccc1,i
O=C1C2CC=C(Cl)CC2C(=O)N1CNc1ccccn1 (configuration not stated),0.1
CCOc1ccc(OCc2ccc(C(=O)O)o2)cc1,0.1
COc1ccc(C(=O)Nc2ccc(N3CCCC3)cc2)cc1,1.3
CC1(C)CC(=O)C2=C(C1)N(CC1CCCO1)C(=O)C2(NC(=O)c1cccnc1)C(F)(F)F (configuration not stated),0.8
CCn1c(CNc2ccc(OC)cc2)nnc1SCC(=O)c1ccc(OC)cc1,i
O=C(COc1ccccc1Cl)N1CCCC1,0.1
Cc1ccccc1-n1c(-c2cccnc2)n[nH]c1=S,i
